RanGTP-Impb inh: inhibitors of RanGTP-importin-beta interaction, primary screen, biochemical, FRET, CFP-Ran, YFP-importin-beta, homogeneous | hit rate 1.1% among 300,000 | Ran GTPase (GTP-bound) - importin-beta complex | inhibition, % (test concentration not listed) | cell-free CFP-Ran/YFP-importin-beta FRET ratio;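 active means most replicates above 15%; inconclusive means exactly half above 15%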;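 further: 0% = DMSO wells and 100% = Ran loaded with GDP instead of GTP; wells of about 40 µL received 100 nL stock; the first replicate is given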
Beta cell apopt: inhibitors of cytokine-induced beta cell apoptosis, primary screen, luminescence; INS-1E cytokine-induced death, ATP luminescence, 48 h; percent of positive-control rescue, neutral wells zero; protection from apoptosis, % (no concentration beside the values); hit rate 0.8% among 300,000;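 active means all replicates at 75% or more, or half of them and the mean; inconclusive means half reach 75% but not the mean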;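 further: 0% = cytokine-treated negative control wells and 100% = positive control rescue; higher means more ATP so stronger rescue from cytokine killing; wells of about 40 µL received 100 nL stock; the first replicate is given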
ALR H2O2 inh: inhibitors of human ALR sulfhydryl oxidase, primary screen, biochemical, H2O2 detection, HRP-luminol luminescence, single point; purified ALR, DTT oxidation; FAD-linked sulfhydryl oxidase ALR (Homo sapiens), P55789; hit rate 3.8% among 290,000; inhibition, % (no concentration beside the values);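 active means mean and each replicate at 75% or more; inconclusive means only one of the two met; inactive means neither met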;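 further: stock transfer was 7.5 nL into about 7.5 µL; 0% = neutral wells and 100% = wells with inactivated enzyme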
Target sequence (P55789 whole entry, looked up): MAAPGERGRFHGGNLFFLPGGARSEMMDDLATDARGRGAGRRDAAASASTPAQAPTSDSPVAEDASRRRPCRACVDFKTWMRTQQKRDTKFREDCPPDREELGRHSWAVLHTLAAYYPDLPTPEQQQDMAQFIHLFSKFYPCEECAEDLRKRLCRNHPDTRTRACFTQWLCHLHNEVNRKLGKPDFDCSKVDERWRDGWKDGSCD
Ecoli rRNA inh: reduced GFP signal of wild-type E. coli, primary screen, bacterial rRNA inhibitor project, GFP/RFP fluorescence, OD600, single point. GFP signal change (wild-type ribosome), % (concentration not given with the values). hit rate 1.6% among 350,000. E. coli WT GFP vs humanized-ribosome RFP mutants, 24 h; stronger effect = lower value; DMSO median 0, no signal -100;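 active means significant combined selectivity score with lowered wild-type GFP, culture density cut under 30%, mutant RFP and density less affected; inactive means any of these conditions unmet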; further: one replicate is shown; some compounds called inactive have numbers as strong as hits
Calb FLC: C. albicans growth inhibition with fluconazole, primary screen, CaCi-2 strain, Alamar Blue fluorescence; AID 1979, 2009; growth inhibition, % (test concentration not listed); C. albicans CaCi-2 (fluconazole-resistant clinical isolate) + fluconazole, 48 h; hit rate 0.57% among 300,000;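 active means most replicates above 75%; inconclusive means exactly half above 75%; inactive means most below 75%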;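 further: all wells also contain fluconazole at 8 µg/ml as a sub-toxic cotreatment; 0% = median of DMSO wells and 100% = median of geldanamycin control wells; wells of about 8 µL received 7.5 nL stock; the first replicate is given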
FGF22 binding: binders of human FGF22 protein, primary screen, FGF22 synaptogenesis inhibitor project, biophysical, thermal shift, single point. Fibroblast growth factor 22 (Homo sapiens), Q9HCT0. recombinant FGF22 thermal shift, SYPRO orange fluorescence; percent of sucrose octasulfate shift, DMSO zero. calls only at 9.99 µM. hit rate 1.5% among 340,000. AID 651658, 2012;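 active means melting point raised past a set limit in the mean and every replicate; inconclusive means no clear call; three in four hits are not shown here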
Target sequence (Q9HCT0 whole entry, looked up): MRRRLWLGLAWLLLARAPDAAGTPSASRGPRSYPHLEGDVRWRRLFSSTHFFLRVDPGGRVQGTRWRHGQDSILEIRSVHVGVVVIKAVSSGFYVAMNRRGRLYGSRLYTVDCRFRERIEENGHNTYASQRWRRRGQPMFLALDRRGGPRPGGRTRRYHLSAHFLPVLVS
MLL AF4-AF9 inh: inhibitors of AF4 peptide binding to AF9, primary screen, biochemical, AlphaScreen, biotin-AF4 peptide, FLAG-AF9, single point; inhibition, % at 10 µM; AID 651704, 2012; Protein AF-9 (Homo sapiens), P42568; hit rate 0.47% among 350,000;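 active means every replicate reaching a set inhibition limit, whatever the replicate mean, cut at about 25% in these data; inconclusive means mean inhibition reaches that limit but some replicates miss it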;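 further: 0% = plate neutral control median and 100% = total signal loss; the record names both 10 and 1 µM as test concentration; the first replicate is given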
Target sequence (P42568 whole entry, looked up): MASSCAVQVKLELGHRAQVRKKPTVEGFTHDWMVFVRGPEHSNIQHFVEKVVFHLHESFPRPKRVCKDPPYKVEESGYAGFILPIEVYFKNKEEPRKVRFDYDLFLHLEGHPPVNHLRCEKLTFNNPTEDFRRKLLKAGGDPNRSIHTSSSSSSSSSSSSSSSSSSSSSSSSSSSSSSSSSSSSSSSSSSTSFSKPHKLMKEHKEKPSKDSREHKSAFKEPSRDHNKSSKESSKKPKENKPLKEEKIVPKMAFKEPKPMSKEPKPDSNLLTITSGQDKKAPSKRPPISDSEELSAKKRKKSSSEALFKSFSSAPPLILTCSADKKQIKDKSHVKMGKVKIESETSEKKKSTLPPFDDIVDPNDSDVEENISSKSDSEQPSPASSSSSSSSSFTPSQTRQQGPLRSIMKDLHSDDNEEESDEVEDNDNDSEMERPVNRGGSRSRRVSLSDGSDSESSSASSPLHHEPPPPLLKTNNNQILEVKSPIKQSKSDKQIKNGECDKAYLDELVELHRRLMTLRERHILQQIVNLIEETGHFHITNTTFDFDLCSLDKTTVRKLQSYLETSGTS
T cruzi repl: inhibitors of intracellular T. cruzi growth, primary screen, luminescence, NIH3T3 host cells; inhibition, % (test concentration not listed); T. cruzi beta-gal in NIH3T3, 90 h; hit rate 1.4% among 300,000;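 active means mean inhibition across valid replicates above about 55%, limit read from the data; inconclusive means mean below that limit but half or more replicates reach it; inactive means mean below it, under half of replicates reach it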;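 further: signal also drops with host cell toxicity which is not excluded here; 0% = plate median of DMSO wells and 100% = zero luminescence signal; higher percent means less beta-gal luminescence so fewer parasites; stock transfer was 50 nL into about 50 µL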
Ecoli rRNA inh OD600: also measured in Ecoli rRNA inh; calls as there; OD600 change, %; measured here: OD600 growth;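 optical density of the mix in the first replicate; 0 = DMSO median and -100 = no signal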
Ecoli rRNA inh RFP: second read-out of Ecoli rRNA inh, no call of its own (marks repeat the call); RFP signal change, %; measured here: RFP humanized mutant strains;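 first replicate; 0 = DMSO median and -100 = no signal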
An asterisk follows results filed as active; i = inactive; ? = inconclusive; . = no result given. Not all compounds are listed; rates above refer to the full screens.

SMILES	RanGTP-Impb inh	Beta cell apopt	ALR H2O2 inh	Ecoli rRNA inh	Ecoli rRNA inh OD600	Ecoli rRNA inh RFP	Calb FLC	FGF22 binding	MLL AF4-AF9 inh	T cruzi repl
C(=N\n1cnnc1)/c1ccc(N2CCOCC2)s1	9.5	0.1	48.0	.	.	.	-6.2	.	.	-17.8
Cc1ccccc1CNC(=O)C1CCC(=O)N(CC2CCCCC2)C1 (stereo not drawn)	-2.9	-0.6	10.5	7.1	2.9	6.8	-10.3	i	-2.2	10.7
CC1Cc2ccccc2N1C1=CC(=O)CCC1 (stereo not drawn)	?	9.4	-8.2	-3.1	2.7	1.9	-5.3	i	-0.3	37.6
CN1C(=O)Cc2cc(S(=O)(=O)NCCc3ccc(Cl)cc3)ccc21	1.7	-3.9	5.5	0.9	3.7	-2.4	10.9	i	-2.5	-26.2
COCCOC(=O)c1nccnc1C(=O)Nc1ccc(S(=O)(=O)N2CCOCC2)cc1	4.2	-8.9	2.6	17.5	15.5	1.2	4.1	i	-1.2	-11.5
Cc1ccc(-n2c(C)cc(/C=N/NC(=O)c3ccc(CN4CCOCC4)cc3)c2C)cc1	-1.0	0.7	10.3	.	.	.	1.8	.	.	1.6
COCCCN(Cc1ccco1)C(=O)CSc1nc2ncccc2[nH]1	1.1	-2.4	-2.2	12.6	11.0	2.2	-3.1	i	1.2	-16.9
COCc1nc(-c2ccc(-c3ccc(OC)cc3)nc2OC)no1	9.0	.	.	-7.5	-14.4	-0.5	-3.4	i	1.4	-10.6
O=S(=O)(Nc1nnc(-c2ccccc2)s1)c1ccc(Cl)cc1	-1.1	-2.8	4.3	.	.	.	?	.	.	.
CSc1nc(-c2ccccc2)nn1C(=O)c1ccc(C)cc1	-0.3	-5.0	39.2	.	.	.	-4.8	.	.	4.2
CCOC(=O)CCC(=O)NCc1ccc2[nH]c(C)cc2c1	-12.4	-0.1	-27.3	.	.	.	3.1	.	.	-17.7
CC(NC(=O)COC(=O)C1CC2CCCC(C1)C2=O)c1ccccc1 (stereo not drawn)	.	0.7	9.6	7.6	8.4	-0.2	.	i	-1.6	.
O=C1C2CCCN2C(c2cccs2)N1c1ccc(F)cc1 (stereo not drawn)	1.4	-4.0	0.1	-9.6	-3.8	-2.3	-45.6	i	0.6	2.2
CC(=O)c1sc(NC(=O)C2CC(=O)N(Cc3ccccc3)C2)nc1-c1ccccc1 (stereo not drawn)	3.5	-4.1	-4.0	-30.6	-61.5	9.0	2.2	i	1.1	-7.8
CCOc1ccc(-n2c(Cc3cc(=O)[nH]c(=O)[nH]3)nnc2SC(C)C)cc1	-0.7	2.3	0.8	.	.	.	-7.2	.	.	-12.7
COc1ccc(Cn2c(CCC(=O)Nc3ccccc3)nc3cccnc32)cc1	-2.8	-1.9	-16.6	.	.	.	8.5	.	.	11.6
O=C(CN(Cc1ccccc1F)C(=O)c1csnn1)NCc1ccc2c(c1)OCO2	-1.7	-1.3	1.4	4.5	-0.4	0.1	-16.4	i	-0.3	13.2
COc1ccc(C(=O)Nn2c(C)nc3ccccc3c2=O)cc1Br	2.5	1.7	.	-8.1	-17.4	-3.1	-2.2	i	2.0	-3.7
CCn1cc(C(=O)O)c(=O)c2cc(F)c(N3CCN(C(=S)NC(=O)c4cc(OC)cc(OC)c4)CC3)cc21	1.4	9.8	-18.8	-59.0	-77.3	-20.7	?	i	0.1	-1.1
COc1ccc(CCN(Cc2cc3ccc(C)cc3[nH]c2=O)C(C)=O)cc1OC	2.1	-18.3	6.7	1.3	-5.1	1.0	1.0	i	2.1	-2.6
CN(CCCN1CCCCC1)C(=O)CCc1nnc(C2CCCCC2)o1	1.4	-2.7	-6.6	12.7	9.7	-0.9	0.6	i	1.8	-0.8
O=C1/C(=C\c2cccnc2)Sc2ccccc21	13.6	1.5	4.0	-9.4	-10.1	22.9	-5.1	i	15.2	-2.2
CC(C)c1ccc(NC(=O)CCNS(=O)(=O)c2cccc3nonc23)cc1	-8.0	2.9	.	.	.	.	-3.4	.	.	6.3
Cc1ccc(OCC(=O)NC(=S)Nc2ccc(Br)cn2)cc1	0.0	-0.2	3.3	-3.0	-17.1	2.7	-1.4	i	-1.6	1.3
Cc1cc(Cl)c2oc(C(=O)N(C)C(C)c3ccccn3)c(C)c2c1 (stereo not drawn)	1.5	10.3	3.9	-47.8	-73.7	-15.1	4.8	i	-3.8	6.8
COc1ccc(C(C)NC(=O)Cc2ccc(Br)cc2)cc1 (stereo not drawn)	-5.4	.	-4.3	.	.	.	-4.1	.	.	-11.6
CC(=O)Nc1ccc(NC(=S)Nc2ccccc2)cc1	0.8	-1.5	3.8	.	.	.	-1.5	.	.	-10.0
Cc1nnc(SCC(=O)NCc2ccc3c(c2)OCO3)s1	-6.1	-4.6	-17.1	.	.	.	-0.9	.	.	-11.3
Cn1c2ccccc2c2nnc(SCC(=O)Nc3ccccc3F)nc21	4.3	.	-1.7	3.0	12.5	-0.8	0.0	i	-0.5	-8.3
COc1cc(/C=C2/C(=O)N(C)C(=S)N2C)ccc1OCc1cccc(F)c1	-3.1	-0.5	14.3	-1.5	6.4	-2.3	4.0	i	1.7	-11.7

2 records picked at random from those above:
SMILES	RanGTP-Impb inh	Beta cell apopt	ALR H2O2 inh	Ecoli rRNA inh	Ecoli rRNA inh OD600	Ecoli rRNA inh RFP	Calb FLC	FGF22 binding	MLL AF4-AF9 inh	T cruzi repl
Cc1ccc(OCC(=O)NC(=S)Nc2ccc(Br)cn2)cc1	0.0	-0.2	3.3	-3.0	-17.1	2.7	-1.4	i	-1.6	1.3
Cc1nnc(SCC(=O)NCc2ccc3c(c2)OCO3)s1	-6.1	-4.6	-17.1	.	.	.	-0.9	.	.	-11.3

Later entries:
SMILES	RanGTP-Impb inh	Beta cell apopt	ALR H2O2 inh	Ecoli rRNA inh	Ecoli rRNA inh OD600	Ecoli rRNA inh RFP	Calb FLC	FGF22 binding	MLL AF4-AF9 inh	T cruzi repl
Cc1cccc(C(=O)Nc2ccc(NC(=O)CN3CCOCC3)cc2)c1	-0.6	0.3	.	1.2	-1.8	-1.9	-9.7	.	1.0	-9.5
CC(CN(C)Cc1ccccc1)OC(=O)C1COc2ccccc2O1 (stereo not drawn)	-2.9	-8.8	.	23.8	21.4	4.3	-1.1	i	-1.6	-9.5
O=C(CSc1n[nH]c(-c2ccccc2Br)n1)NC(=O)NCc1ccco1	-0.3	-5.0	1.0	.	.	.	15.3	.	.	11.4
CC(Nc1nc(-c2ccc(F)cc2)cs1)c1nc2cc(C(F)(F)F)ccc2n1CCCO (stereo not drawn)	-1.8	-13.7	34.3	-21.7	-38.1	26.3	-3.3	i	-3.5	8.0
CC(C)[C@H](N)C(=O)N1CCC(C(=O)N[C@@H](Cc2ccccc2)C(=O)NCc2ccc(F)cc2)CC1	3.7	1.4	0.4	-0.4	-4.9	-1.3	9.3	i	-6.5	-16.7
CCCCOc1ccc(C2C(=O)N(C3CCCCC3)CC(=O)N2CC2CCCO2)cc1 (stereo not drawn)	6.5	-8.6	-2.0	.	.	.	-6.8	.	.	13.7
CS(=O)(=O)c1ccccc1-c1nnc(NC(=O)c2ccc3ncsc3c2)o1	-0.6	-8.4	-2.2	-13.3	-11.3	-3.2	-2.7	i	2.1	-7.5
COc1cc(C(=O)Nc2cnc(NC(=O)C(C)C)cc2C)cc(OC)c1OC	-5.5	-3.3	-1.8	.	.	.	0.8	.	.	-9.1
COc1ccc(CCC(=O)Nc2nc3ccccc3[nH]2)cc1	1.1	-3.8	.	.	.	.	-3.0	.	.	12.4
CCOc1ccc(C(=O)Nc2cc(C)on2)cc1	1.7	1.1	-11.8	.	.	.	-1.6	.	.	-3.5
Cc1cc(C(=O)COc2cccnc2[N+](=O)[O-])c(C)n1Cc1cccs1	5.2	3.0	.	12.8	2.5	7.8	-3.6	i	2.8	8.0
Cc1cccc(NC(=O)CNC(=O)COC(=O)c2ccc(C(C)(C)C)cc2)c1C	.	4.9	-0.3	7.4	4.6	2.4	.	i	-11.2	.
O=C(Nc1nc(-c2ccncc2)cs1)c1ccco1	2.3	4.2	-4.1	.	.	.	3.7	.	.	9.5
O=C(Oc1ccc2ccccc2c1)c1ccco1	3.5	-6.8	-14.9	.	.	.	4.0	.	.	8.2
Nc1nonc1C(=O)NCCNCc1c(OCc2ccccc2F)ccc2ccccc12	2.0	9.0	-4.8	.	.	.	-16.8	.	.	25.5
O=C1NC2(CCCCCC2)N=C1c1ccc(F)cc1	-0.7	.	-0.6	.	.	.	-49.6	.	.	-14.6
CCS(=O)(=O)CCSc1nc2ccccc2o1	0.4	-1.2	-0.6	5.1	9.0	-1.9	-4.8	.	.	3.9
COCCn1c(SCC(=O)Nc2nnc(C)s2)nnc1-c1c[nH]c2ccccc12	2.3	.	.	-13.3	-3.1	-1.5	27.5	i	6.8	-25.1
COc1cc2c(=O)n(-c3ccc(C)cc3)c(=O)n(CC(=O)c3ccc4c(c3)OCO4)c2cc1OC	-3.0	-7.0	6.2	.	.	.	1.0	.	.	4.2
COc1ccc(C)cc1NC(=O)C1CC(=O)N(Cc2ccco2)C1 (stereo not drawn)	-2.6	-1.7	-2.5	.	.	.	10.5	.	.	-5.2

Sorted by the number under ALR H2O2 inh (lowest first): some entries from above.
mol | ALR H2O2 inh
O=C(Oc1ccc2ccccc2c1)c1ccco1 | -14.9
O=C(Nc1nc(-c2ccncc2)cs1)c1ccco1 | -4.1
CCS(=O)(=O)CCSc1nc2ccccc2o1 | -0.6

(cont.)
SMILES	RanGTP-Impb inh	Beta cell apopt	ALR H2O2 inh	Ecoli rRNA inh	Ecoli rRNA inh OD600	Ecoli rRNA inh RFP	Calb FLC	FGF22 binding	MLL AF4-AF9 inh	T cruzi repl
Cc1cccc(NC(=S)NCc2ccc3c(c2)OCO3)c1C	-1.6	2.4	-14.2	.	.	.	1.8	.	.	16.2
CCOC(=O)c1c(C)[nH]c(C(=O)OCC(=O)N2CCc3ccccc32)c1C	-2.2	-0.2	-3.2	.	.	.	3.6	.	.	-1.3
CCOC(=O)C(C)Sc1nc(N)c(NC(=O)c2ccc(OC)c(OC)c2)c(=O)[nH]1 (stereo not drawn)	2.3	-4.5	-37.3	0.4	12.4	3.1	6.6	i	1.1	-11.3
C=CCC[C@H](Cc1ccc(F)cc1)C(=O)OC[C@H](Cc1c[nH]c2ccccc12)NC(=O)[C@@H](CC=C)CC(=O)N[C@H](CO)Cc1ccccc1	.	5.8	1.0	7.9	0.1	-7.3	.	i	3.0	.
CCc1cccc(NC(=O)C2CCCN(S(=O)(=O)c3ccc4[nH]c(=O)ccc4c3)C2)c1 (stereo not drawn)	1.1	.	-9.0	2.5	12.9	-0.3	10.8	i	0.5	-8.9

Source: PubChem (Broad Institute)
